Mtb bLac sens = beta-lactam sensitization of Mtb H37Rv; 330,000 compounds, 0.27% hits; AID 434955; M. tuberculosis H37Rv growth with meropenem, percent inhibition; hits of this screen are not shown here; inhibition, % at 25 µM;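 active means about 74% or more and at least 40 points above the plate without the antibiotic, then above 30% in a dose series; inconclusive means first-round hits that could not be retested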;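 further: growth measured after seven days incubation then overnight dye step; 0% = bacteria only wells and 100% = bacteria with antibiotic; twin plates without the antibiotic show which effects depend on it; some results filed as inactive read as strong as hits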
Mtb growth = M. tuberculosis H37Rv growth inhibitors, H37Rv strain (AID 1626) | M. tuberculosis H37Rv growth inhibition; higher % means a stronger effect | inhibition, % at 10 µM; hits with a dose series show IC50 in µM | 220,000 compounds, 0.95% hits;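 active means confirmed in a dose series; inconclusive means inhibition above 80% but not taken into the dose series; inactive means below 80% or under 30% at every dose of the series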;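 further: bacteria incubated seven days before Alamar blue readout; 0% = bacteria only wells and 100% = bacteria with antibiotic wells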
YopH PTP inh = blocks Yersinia enterocolitica YopH tyrosine phosphatase. fluorescence Ex485/Em525. inhibition, %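 (about 10 µM by stock and volumes)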. 140,000 compounds, 0.16% hits. AID 898;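 active means inhibition of 50% or more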;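 further: controls were vehicle for no effect and minimum signal wells for full effect; inactives centre near -20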
Arbovirus anti = blocks arbovirus infection | AID 1251 | 200,000 compounds, 0.37% hits | arbovirus infection cell-based antiviral screen | inhibition, % at 10 µM;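 active means inhibition from about 30%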;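 further: bluetongue infection of BSR cells; cell survival read as ATP light after 72 h; 0% = infected wells without compound and 100% = uninfected wells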
RecA intein inh = inhibitors of M. tuberculosis RecA intein splicing; cell-free RecA intein splicing, fluorescence; P9WHJ3; inhibition, %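 (about 9 µM by stock and volumes)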; 290,000 compounds, 0.75% hits; in the data active means inhibition above about 30%; inconclusive means no clear call, values can overlap the other calls;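 further: 0% = vehicle wells and 100% = reference inhibitor control wells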
Target sequence (P9WHJ3 whole entry, looked up): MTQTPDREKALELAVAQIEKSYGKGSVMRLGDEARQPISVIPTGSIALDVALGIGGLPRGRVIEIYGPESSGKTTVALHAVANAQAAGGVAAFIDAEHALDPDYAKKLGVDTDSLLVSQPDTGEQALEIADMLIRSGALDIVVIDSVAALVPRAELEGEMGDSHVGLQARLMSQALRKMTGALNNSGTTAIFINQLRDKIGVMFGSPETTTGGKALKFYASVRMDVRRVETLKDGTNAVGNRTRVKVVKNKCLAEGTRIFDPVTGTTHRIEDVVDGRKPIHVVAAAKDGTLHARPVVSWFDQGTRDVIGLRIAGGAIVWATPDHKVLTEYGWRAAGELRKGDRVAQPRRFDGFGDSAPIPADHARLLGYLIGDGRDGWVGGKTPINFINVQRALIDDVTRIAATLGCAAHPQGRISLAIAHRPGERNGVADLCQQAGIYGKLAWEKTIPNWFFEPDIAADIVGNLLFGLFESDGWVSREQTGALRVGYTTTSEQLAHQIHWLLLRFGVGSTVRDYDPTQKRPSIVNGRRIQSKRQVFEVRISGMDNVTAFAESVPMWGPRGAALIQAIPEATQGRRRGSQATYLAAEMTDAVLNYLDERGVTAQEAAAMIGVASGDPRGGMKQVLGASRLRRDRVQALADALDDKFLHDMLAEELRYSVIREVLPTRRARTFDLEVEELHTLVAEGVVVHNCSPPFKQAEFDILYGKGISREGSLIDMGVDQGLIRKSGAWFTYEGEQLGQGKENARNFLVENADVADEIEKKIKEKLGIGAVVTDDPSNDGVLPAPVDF
Arbovirus anti repeat = recorded beside Arbovirus anti, whose call it bears; inhibition, %; measured here: 10K subset replicate screen; many hits read low in the repeat;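 first of two repeat runs on a subset; 0% = infected and 100% = uninfected wells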
* = called active by the depositor; ? = inconclusive; / = no result given. Not all compounds are listed, so the mix of outcomes need not match the whole.

SMILES | Mtb bLac sens | Mtb growth | YopH PTP inh | Arbovirus anti | RecA intein inh | others
OC(CSc1c(Cl)cccc1Cl)CN1CCN(c2ccc(F)cc2)CC1 (centres undefined) | 1 | 6% | -24 | 4 | /
O=C(c1ccc(Oc2ccc(C(F)(F)F)cc2[N+](=O)[O-])cc1)N1CCOCC1 | -5 | 5% | -14 | -1 | 0.9
CC1=C(C(=O)Nc2ccc(C)cc2C)C(c2ccc([N+](=O)[O-])cc2)n2ncnc2N1 (centres undefined) | 1 | -2% | -8 | 4 | 4.6
O=C(NCc1ccccc1)c1ccc(Cl)cc1[N+](=O)[O-] | -4 | -2% | -9 | -5 | -1.3
N#CCCn1cc(C(=O)Nc2ccccc2Cl)c(-c2ccc(F)cc2)n1 | -25 | / | / | / | 2.7
CCn1c(/N=C/c2ccccc2O)nc2ccccc21 | -6 | / | / | / | -0.8
CCCCOc1ccc(NC(=O)CSc2nnnn2C)cc1 | -3 | 34µM* | -32 | -1 | 1.1
O=C1CC(=C(c2ccccc2)c2ccccc2)C(=O)N1CCCN1CCN(c2cccc(Cl)c2)CC1 | 60 | 13% | -26 | 14 | 15
Cc1ccccc1CS(=O)(=O)Cc1ccc(C(=O)NCC2CCCO2)o1 (centres undefined) | / | / | -42 | -2 | -1.4
O=C1CC(c2ccccc2)c2cc(O)ccc2O1 (centres undefined) | 2 | -5% | 70* | -1 | -12 | Arbovirus anti repeat=4
Cn1ncc(Cl)c1C(=O)N1CCN(c2ccccc2)CC1 | -5 | / | / | / | -1.7
CCCC(=O)Nc1cccc(-c2cn3ccsc3n2)c1 | -4 | -4% | -30 | -1 | -2.2
CC(=O)Nc1cccc(-c2nnc(-c3ccccc3)o2)c1 | -7 | -12% | -25 | -7 | /
Fc1cc(Cl)ccc1NC1=NCCCCC1 | 6 | / | / | / | -0.3
Cc1cc(C(=O)NCc2cc(C)n(C)n2)sc1-c1ccccc1 | / | 4% | -28 | -15 | 1.0
COc1ccc(CCNC(=O)CN(Cc2ccc(Cl)cc2)S(C)(=O)=O)cc1 | -4 | / | / | / | -1.1
COc1ccc(CCNc2oc(-c3ccccc3OC)nc2C#N)cc1OC | 3 | 9% | -24 | 3 | -4.1
CCOc1ccc(NCc2nnc(SCc3ccc(Cl)cc3)n2-c2ccccc2)cc1 | 95 | 97% | -8 | 3 | 14
Cc1[nH]n(C2=NCCS2)c(=O)c1N=Nc1ccccc1 | 97 | 3% | / | -5 | 1.2
CCc1cc2cc(C(=O)Nc3ccccc3F)sc2s1 | 7 | 0% | -19 | -11 | -2.1
O=C(O)C1=C[C@@H](c2csc3ccccc23)C[C@@H](OCc2ccc(CO)cc2)O1 | 1 | -4% | / | 2 | 0.6
CCCN1CCC(=O)N([C@H](COc2ccccc2)c2ccccc2)CC1 | -10 | / | / | / | -2.2
O=C(COc1cc2oc(=O)c3c(c2cc1Cl)CCC3)NCCCn1ccnc1 | -3 | / | / | / | 1.7
COC(=O)CSc1ncnc2c(C)csc12 | 7 | -1% | / | / | -0.4
Cc1cc(/C=C2/NC(=O)N(Cc3ccccc3F)C2=O)c(C)n1C | 0 | 0% | -19 | 4 | -2.1
Cn1c(Cn2c(=O)sc3ccccc32)nnc1SCC(=O)N1CCN(c2ccccc2)CC1 | 6 | / | -16 | -5 | -1.3 | Arbovirus anti repeat=-8
O=C(CCC(=O)c1ccc(Br)cc1)Nc1ccc(F)cc1 | 4 | / | / | / | 0.2
Cc1ccc(NC(=O)CSCC(=O)NNC(=O)c2ccoc2C)cc1 | -9 | / | / | / | -1.8
CCCCCCCCCCCCN1C(=O)CSC1c1cccnc1 (centres undefined) | 11 | 1% | / | / | 1.6
COc1ccc(CCn2c(=N)c(C(=O)NCc3ccco3)cc3c(=O)n4cccc(C)c4nc32)cc1 | 9 | 38% | -37 | 3 | -5.1

Filtered by structure: those above containing a thiophene ring, fused or not.
SMILES | Mtb bLac sens | Mtb growth | YopH PTP inh | Arbovirus anti | RecA intein inh | others
Cc1cc(C(=O)NCc2cc(C)n(C)n2)sc1-c1ccccc1 | / | 4% | -28 | -15 | 1.0
CCc1cc2cc(C(=O)Nc3ccccc3F)sc2s1 | 7 | 0% | -19 | -11 | -2.1
O=C(O)C1=C[C@@H](c2csc3ccccc23)C[C@@H](OCc2ccc(CO)cc2)O1 | 1 | -4% | / | 2 | 0.6
COC(=O)CSc1ncnc2c(C)csc12 | 7 | -1% | / | / | -0.4

Next compounds follow.
SMILES | Mtb bLac sens | Mtb growth | YopH PTP inh | Arbovirus anti | RecA intein inh | others
NC(=O)CC(NC(=O)Cc1ccc(Cl)cc1)c1ccc(NCCOc2ccccc2)c([N+](=O)[O-])c1 (centres undefined) | 1 | / | / | / | -1.5
COC(=O)CC1C(=O)NCCN1C(=O)c1ccc([N+](=O)[O-])cc1 (centres undefined) | -1 | / | / | / | -1.0
Cc1ccc(C(=O)Nc2ccc(CN3CCCCC3)cc2)c(C)c1 | 6 | 11% | / | -8 | -4.9
COc1ccccc1NC(=O)Nc1nc(CC(=O)Nc2ccc(N(C)C)cc2)cs1 | 3 | / | / | / | 2.5
COc1ccc(/C=C(/NC(=O)c2ccc([N+](=O)[O-])cc2)C(=O)NCCCN(C)C)cc1 | -5 | 4% | / | -1 | -2.7
Cc1nc2c(c(=O)n1CCC(C)C)c1nc3ccccc3nc1n2Cc1ccc2c(c1)OCO2 | -21 | -6% | / | / | -2.7
c1cncc(Cc2cc3ccccc3[nH]2)c1 | -3 | 5% | -7 | 1 | -2.2
COc1ccc(CCNC(=O)CSc2nn3c(=O)c(C)nnc3s2)cc1OC | -4 | / | / | / | 0.7
CCN(CC)CCCNC(=O)C1CCN(c2ncnc3c2sc2cccc(F)c23)CC1 | -1 | -1% | / | / | 2.1
COc1ccccc1N1CCN(C(=O)C(C)N(c2ccc(C)cc2)S(C)(=O)=O)CC1 (centres undefined) | -2 | -3% | 29 | 11 | 1.3
O=C(COc1ccccc1Br)Nc1ccccc1C(F)(F)F | 33 | 2% | / | -12 | 3.9
O=C(CCSc1ccccc1)NCc1cccnc1 | 4 | 1% | -21 | 0 | -2.2
C#C[C@]1(O)CCC2C3CCC4=CC(=O)CC[C@@H]4C3CC[C@@]21C (some centres undefined) | -6 | / | / | / | 1.7
CCOc1c(Br)cc(/C=C2/SC(=O)N(CC(=O)N3CCCC3)C2=O)cc1OC | 3 | / | -41 | 1 | -0.6
C/C=C/Cn1c(SCCCc2ccccc2)nc2c1c(=O)[nH]c(=O)n2C | 3 | 6% | 0 | 2 | 14 | Arbovirus anti repeat=-11
Cn1c(N)c(C(=O)CSc2nnc(-c3ccccc3F)n2C2CC2)c(=O)n(C)c1=O | 1 | 6% | / | 6 | 9.8
O=C(CNC(=O)c1ccccc1)OCc1cc(=O)n2cc(Br)ccc2n1 | 1 | 4% | -15 | 2 | 1.0
CC(NC(=O)Nc1ccc(Cl)cc1)C(c1cccs1)N1CCOCC1 (centres undefined) | 2 | -5% | -44 | 2 | -0.7
Cc1nc2ccccc2c2oc(C(=O)N3CCc4ccccc43)cc12 | / | 12% | / | -5 | / | Arbovirus anti repeat=-2
COc1ccc(NC(=O)N2CCN(c3nc(-c4cccc(OC)c4)cs3)CC2)cc1 | 27 | 9.5µM* | -18 | -14 | 2.7
Cc1cc(C(=O)NC2CC(C)(C)Cc3c2cnn3-c2cccc(F)c2)n(C)n1 (centres undefined) | 83 | / | / | / | 2.1
Cc1ccc(Cn2nc3c(cc2=O)CCc2ccccc2-3)cc1 | 4 | 10% | / | -14 | 9.0
COc1ccc(/C=C/C(=O)c2cc(F)ccc2OC(=O)c2ccc(OC)c(OC)c2)cc1OC | 25 | 11% | -14 | 0 | 0.6
COc1ccc(C(=O)O)cc1NS(=O)(=O)c1cccc2nsnc12 | 10 | 1% | -46 | 12 | 1.9
Cc1ccc(NC(=O)CSc2nnc(CNC(=O)C34CC5CC(CC(C5)C3)C4)n2-c2ccc(F)cc2)cc1 | 20 | / | -19 | -2 | 1.0
CC(=O)c1cnc2ncnn2c1C | -5 | -8% | -20 | -1 | 1.2
COP(=O)(OC)C(Nc1ccc([N+](=O)[O-])cc1)c1ccccc1 (centres undefined) | 1 | 7% | / | / | 1.6
Cc1ccc(Cl)c2c(N=Nc3ccccc3)c(O)[nH]c12 | 1 | / | / | / | -3.5
CN(Cc1ccccc1)c1oc(-c2ccco2)nc1C#N | 11 | 8% | 12 | -4 | 6.3
CC1(C)N(O)CC(c2cccs2)=[N+]1[O-] | -3 | -5% | -10 | 2 | -3.7

Reprinted at random: 2 compounds from above.
SMILES | Mtb bLac sens | Mtb growth | YopH PTP inh | Arbovirus anti | RecA intein inh | others
Cc1ccc(Cl)c2c(N=Nc3ccccc3)c(O)[nH]c12 | 1 | / | / | / | -3.5
CC(=O)c1cnc2ncnn2c1C | -5 | -8% | -20 | -1 | 1.2

More entries follow.
SMILES | Mtb bLac sens | Mtb growth | YopH PTP inh | Arbovirus anti | RecA intein inh | others
Cc1ccc(NC(=O)c2ccccc2[N+](=O)[O-])nc1 | -4 | -1% | -14 | -14 | 1.3
c1ccc(-n2ncc3c(NCc4ccco4)ncnc32)cc1 | -2 | 12% | -27 | -5 | 1.1
Cc1ccc(-c2cc(C)nc3ncnn23)cc1 | -1 | 1% | -36 | 8 | -0.4
C=CCn1c(-c2sc3nc(C)cc(C)c3c2N)n[nH]c1=S | -9 | 13% | / | / | 0.5
CCCCC(=O)N/N=C/c1c(O)n(Cc2ccco2)c(=O)[nH]c1=O | 4 | 2% | -11 | 1 | 1.2
Cc1cccc(N2CN(Cc3cccnc3)CNC2=S)c1C | -8 | 0% | -20 | -9 | -2.3
O=C(CN1CCCN(Cc2ccc(F)cc2)S1(=O)=O)NC1CCCC1 | ? | / | / | / | -1.8
COc1ccccc1-n1c(C)nc(=O)c(-c2ccccc2)c1C | 3 | -2% | 20 | 4 | -0.7
CC(C)C(=O)Nc1nc(-c2ccc([N+](=O)[O-])cc2)cs1 | 4 | 1% | / | 2 | -1.2
CC(C)c1ccccc1NC(=S)NN(Cc1ccccc1)c1ccccc1 | 17 | -2% | -30 | -16 | 20
COc1ccc(Br)c(C(=O)N(C)CC(=O)Nc2ccc(N3CCOCC3)cc2)c1 | -8 | / | / | / | -1.2
CC1CC(C)CN(CCCNC(=O)c2ccc3nc(N4CCCCC4)sc3c2)C1 (centres undefined) | 0 | / | / | / | 2.7
Cc1cccc(OCC(=O)Nc2ccc(C(=O)NCC(C)C)cc2)c1 | 10 | 3% | / | 2 | 0.4
O=C(NC1CCN(CC(=O)N(c2ccccc2)c2ccccc2)CC1)c1ccc([N+](=O)[O-])cc1 | -3 | -3% | / | 2 | 1.0
OCC1(CC2CCCCO2)CCN(C/C=C/c2ccccc2)CC1 (centres undefined) | -7 | -1% | / | 5 | 0.0
O=C(O)c1ccc(-n2c(-c3cc(-c4ccco4)[nH]n3)n[nH]c2=S)cc1 | -19 | -13% | -23 | 25 | 4.9
CCOC(=O)c1c(NC(C)=O)sc2c1CCC(C=NCCCN(CC)CC)=C2Sc1ccccc1 | 1 | 5% | 18 | / | 61*
O=C(Nc1ccccc1)O/N=C/c1ccccc1Cl | -4 | -4% | -8 | 2 | 3.4
Cc1ccc(NC(=O)COC(=O)Cc2cccs2)c(Br)c1 | -3 | / | / | / | 2.1
Cc1cc([N+](=O)[O-])ccc1N | -5 | / | / | / | -1.8
COCCCNC(=O)CCc1nc(-c2ccccc2Cl)no1 | 8 | -3% | -26 | 1 | 1.6
N/C(=N\NC(=O)Nc1ccc(Cl)cc1)c1ccccn1 | -8 | -6% | / | / | 0.8
Cn1c(=O)c2c(nc(NCc3cccnc3)n2Cc2ccc(Cl)cc2)n(C)c1=O | -20 | 0% | -5 | 3 | 1.9
Cc1c(S(=O)(=O)N2CCN(c3ccc(F)cc3)CC2)c(=O)n(C)c(=O)n1C | 1 | / | / | / | -1.3
COC(=O)c1c(NC(NC(=O)C(C)C)C(Cl)(Cl)Cl)sc2c1CCCC2 (centres undefined) | 1 | 10% | 3 | -19 | -0.6
COC(=O)c1cc(-c2ccc(C)o2)nc2ccccc12 | -3 | 12% | -6 | -9 | -8.8
CCOC(=O)c1cc(NC(=O)Nc2ccccn2)c(C)nc1C | -1 | -8% | / | -10 | 0.1
CC(=O)Nc1ccc(NC(=O)CCN2C(=O)c3ccccc3C2=O)cc1 | -13 | / | / | / | -2.3
Cc1cc(C)c2cc(C(=O)N3CCC(N4CCCCC4)CC3)[nH]c2c1 | 2 | / | / | / | 0.4
O=C1CC(C(=O)N2CCN(c3ccccc3O)CC2)CN1Cc1ccccc1 (centres undefined) | -3 | / | / | / | 3.1
COc1cc(C=O)ccc1OCCSc1ccc(Cl)cc1 | 98 | 3% | -30 | 8 | 2.7

Bioassay records (PubChem)
